ugtP null kill – growth inhibition of ugtP-null S. aureus, primary screen, RN4220 ugtP deletion, OD600 | 16 h; some inactives read as strong as hits | growth inhibition, % (test concentration not listed) | 0.54% of 330,000 active | AID 1259309, 2017;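 active means z-score under -3 and OD600 up to 0.15 on both plates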;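 further: plate controls were untreated wells for no effect and antibiotic for full effect; wells of about 80 µL received 100 nL stock; the first replicate is given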
Autofluor counter – compound fluorescence in toxin protease inhibitor counterscreen; compound autofluorescence counterscreen, microsphere flow cytometry; stronger effect = higher value; fluorescence intensity (test concentration not listed); 3.1% of 360,000 active; AID 624483;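 active means at least 3 SD above the mean of all compounds, about 16000 in these data; inconclusive means too few beads counted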;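 further: 100 nL of 1 mM stock went into each well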
BJeLR lethal – MLPCN primary cell-based screen for lethality selective to Ras in HRASV12 cells. BJeLR (HRASV12) viability, CellTiter-Glo ATP luminescence, 48 h; reference of the scale not given here. 0.17% of 300,000 active. AID 1554, 2009. inhibition, % (concentration not given with the values);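 active means replicate mean above 50%; inconclusive means above 50% but judged a plate artefact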;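 further: 50 nL library stock added to about 25 µL; numbers are from one replicate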
RN4220 kill – growth inhibition of S. aureus RN4220, primary screen, OD600. AID 1259311, 2017. 0.33% of 330,000 active. inhibition, % (test concentration not listed). 16 h;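 active means z-score of -3 or lower and OD600 up to 0.18 on both plates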;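 further: plate controls were untreated cells for no effect and reference antibiotic for full effect; stock transfer was 100 nL into about 80 µL; one replicate is shown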
PrP 5UTR inh – inhibition of PrP 5' UTR reporter expression; cell-based PrP 5' UTR mRNA reporter, plate reader; inhibition, % (no concentration beside the values); 0.35% of 340,000 active; AID 488862, 2010;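 active means every replicate at 50% or more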;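 further: 0 = median of the neutral control wells; tested in H4 reporter cells; numbers are from one replicate; inactives centre near -14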
Mtb hypoxia rep – PubChem AID 1159583; M. tuberculosis hypoxia-regulated fluorescent reporter, fluorescence; fluorescence inhibition, % (concentration not given with the values); 0.1% of 300,000 active;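 active means 35 to 45% if threefold the growth effect, above 45% if 1.5-fold the growth effect; inactive means the rest, general growth blockers included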;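 further: wells of about 50 µL received 100 nL stock; 0% = vehicle wells and 100% = reference inhibitor wells; whole bacteria with a GFP reporter of the hypoxia response; strong numbers were not always called active; many hits fall short of the cut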
Mtb hypoxia rep growth – second read-out of Mtb hypoxia rep, no call of its own (marks repeat the call); growth inhibition, %; measured here: M. tuberculosis growth (absorbance);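 0% = vehicle and 100% = reference antibiotic; read after six days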
Active calls of the source: *; ? = inconclusive; nt = no result given; & = joins results of further samples.

The opening 13 compounds (preview)
SMILES | ugtP null kill | Autofluor counter | BJeLR lethal | RN4220 kill | PrP 5UTR inh | Mtb hypoxia rep | Mtb hypoxia rep growth
COc1cc2c(C#N)c(N3CCCC3)nc(N)c2c(N)n1 | -6&5 | 3435&5413 | 0&-2 | 9.0&7.6 | -13&6 | 11&4 | 10&7
Cc1onc(-c2c(F)cccc2Cl)c1C(=O)N1C=CC(C(F)(F)F)=NCC1 | 6 | 4736 | 2 | 2.9 | -12 | nt | nt
CCc1nn(C(CC)C(=O)NCCc2ccc(OC)cc2OC)c(=O)c2cc3occc3n12 (stereo unspecified) | -1 | 4224 | 2 | 2.5 | -4 | -7 | -10
Cc1cc(C)n2nc(SCc3cc(=O)oc4ccc5ccccc5c34)nc2n1 | 6 | 4691 | -1 | 3.7 | 10 | nt | nt
CCOC(=O)C1CCCN(CCC(=O)Nc2ccc(Br)cc2)C1 (stereo unspecified) | 8 | 3787 | -4 | 2.2 | -41 | 9 | 2
CCONC(=NC)c1nonc1N | -5 | 2209 | -3 | 4.0 | -13 | 3 | 4
C/C(CCC1CC(C)(C)OC1=O)=N\NC(N)=S (stereo unspecified) | nt | 3754 | 1 | nt | -16 | nt | nt
Cc1cccc(-c2csc(NC(=O)c3cnccn3)c2C(=O)OC(C)C)c1 | 3 | 4146 | 0 | -2.8 | -15 | 7 | -1
CCOc1cc(C2C(C#N)=C(N)Oc3c2c(=O)oc2ccccc32)ccc1OC(=O)c1cccs1 (stereo unspecified) | 6 | 2567 | -15 | -1.8 | -3 | -1 | 0
Cc1ccccc1N=C1NC(=O)CC(c2ccccc2)S1 (stereo unspecified) | 33 | 2359 | -3 | 1.1 | -26 | nt | nt
N#Cc1c(N)c(C#N)c(-c2ccc3c(c2)OCO3)c2c1CCCC2 | -6 | 10847 | -1 | 0.6 | -10 | -1 | 4
CC1C(C#N)=C(SCC(N)=O)NC2=C1C(=O)CC(C)(C)C2 (stereo unspecified) | 4 | 4158 | 6 | 3.0 | -30 | 5 | 2
CC(C)NCCOCCOc1ccccc1F | -1 | ? | -3 | -13 | -3 | -2 | -4

The list itself, from the start:
SMILES | ugtP null kill | Autofluor counter | BJeLR lethal | RN4220 kill | PrP 5UTR inh | Mtb hypoxia rep | Mtb hypoxia rep growth
COc1cc2c(C#N)c(N3CCCC3)nc(N)c2c(N)n1 | -6&5 | 3435&5413 | 0&-2 | 9.0&7.6 | -13&6 | 11&4 | 10&7
Cc1onc(-c2c(F)cccc2Cl)c1C(=O)N1C=CC(C(F)(F)F)=NCC1 | 6 | 4736 | 2 | 2.9 | -12 | nt | nt
CCc1nn(C(CC)C(=O)NCCc2ccc(OC)cc2OC)c(=O)c2cc3occc3n12 (stereo unspecified) | -1 | 4224 | 2 | 2.5 | -4 | -7 | -10
Cc1cc(C)n2nc(SCc3cc(=O)oc4ccc5ccccc5c34)nc2n1 | 6 | 4691 | -1 | 3.7 | 10 | nt | nt
CCOC(=O)C1CCCN(CCC(=O)Nc2ccc(Br)cc2)C1 (stereo unspecified) | 8 | 3787 | -4 | 2.2 | -41 | 9 | 2
CCONC(=NC)c1nonc1N | -5 | 2209 | -3 | 4.0 | -13 | 3 | 4
C/C(CCC1CC(C)(C)OC1=O)=N\NC(N)=S (stereo unspecified) | nt | 3754 | 1 | nt | -16 | nt | nt
Cc1cccc(-c2csc(NC(=O)c3cnccn3)c2C(=O)OC(C)C)c1 | 3 | 4146 | 0 | -2.8 | -15 | 7 | -1
CCOc1cc(C2C(C#N)=C(N)Oc3c2c(=O)oc2ccccc32)ccc1OC(=O)c1cccs1 (stereo unspecified) | 6 | 2567 | -15 | -1.8 | -3 | -1 | 0
Cc1ccccc1N=C1NC(=O)CC(c2ccccc2)S1 (stereo unspecified) | 33 | 2359 | -3 | 1.1 | -26 | nt | nt
N#Cc1c(N)c(C#N)c(-c2ccc3c(c2)OCO3)c2c1CCCC2 | -6 | 10847 | -1 | 0.6 | -10 | -1 | 4
CC1C(C#N)=C(SCC(N)=O)NC2=C1C(=O)CC(C)(C)C2 (stereo unspecified) | 4 | 4158 | 6 | 3.0 | -30 | 5 | 2
CC(C)NCCOCCOc1ccccc1F | -1 | ? | -3 | -13 | -3 | -2 | -4
CC(=O)Nc1ccc(NC(=O)c2cc(-c3cc(C)cc(C)c3O)n[nH]2)cc1 | -4 | 3987 | 13 | 0.6 | -4 | 7 | -1
COc1ccc(CC(=O)Nc2ccc3c(c2)CCC3)cc1OC | -10 | 4931 | 11 | -1.2 | -13 | nt | nt
O=C(CCCCCn1c(=O)[nH]c2ccsc2c1=O)NCc1ccc2c(c1)OCO2 | 2 | 8812 | -2 | 1.4 | 1 | 5 | 18
CCC(C)(C)n1nnnc1C(c1cc2ccc(C)cc2[nH]c1=O)N(Cc1cccnc1)Cc1ccco1 (stereo unspecified) | 0 | 8144 | -3 | 0.2 | -25 | 4 | 10
CCN(CC(=O)Nc1ccc(OC)cc1)C(=O)c1cc(S(=O)(=O)N(C)C)ccc1N1CCCC1 | 2 | 4209 | -4 | 6.3 | -13 | 8 | 4
CCCC1NC(=O)NC(C)=C1C(=O)OCC (stereo unspecified) | 3 | 20225* | 9 | 4.9 | -8 | 0 | 2
Cc1cc(C)cc(NC(=O)COc2coc(CN3CCN(c4ccccc4)CC3)cc2=O)c1 | 8 | ? | 13 | 0.8 | -1 | 15 | 5
Cc1ccc(N(C(=O)CNC(=O)c2ccco2)C(C(=O)NC2CCCC2)c2ccncc2)c(C)c1 (stereo unspecified) | -4 | 3134 | 8 | -2.1 | -9 | -3 | 1
Cc1ccccc1OCc1nc2c3c(ncn2n1)-c1ccccc1CC31CCCC1 | nt | 2174 | -4 | nt | -11 | nt | nt
O=C(NCCOc1cccc(Oc2ccccc2)c1)c1cc(-n2cnnc2)ccc1Cl | 8 | 11547 | 1 | 4.3 | -4 | 1 | -7
Cc1noc(NS(=O)(=O)c2ccc(NC(=O)CSc3nc4ccccc4s3)cc2)c1C | 12 | 10147 | 7 | -8.3 | -43 | 12 | 5
CCCC(=NNC(=O)c1cccc(C)c1)c1ccccc1 | 2 | nt | nt | 0.4 | nt | 3 | 2
O=c1[nH]c2c(s1)C=Nc1ccccc1N2 | -5 | 4121 | 1 | 4.5 | 0 | 1 | 10
C#CCOCCOCCOCCNc1nc(N2CCN(C(=O)C(CCCCN)n3cc(CC(C)O)nn3)CC2)nc(N2CCN(C(=O)C(C(C)CC)n3cc(CCCN=C(N)N)nn3)CC2)n1 (stereo unspecified) | 2 | nt | nt | 8.2 | nt | 17 | 10
CCOC(=O)CCn1cc(F)c(=O)[nH]c1=O | 0 | 4231 | -3 | 3.4 | -29 | 6 | 2
N#Cc1c(C#N)c(-c2ccccc2)n(-c2ccccc2)c1N | 4 | 2722 | 1 | -2.7 | -21 | nt | nt
O=[N+]([O-])c1cccc2c(N3CCCC3)ccnc12 | 13 | 4602 | -12 | 9.6 | -8 | -4 | 11
N#Cc1ccc(CO/N=C/c2ccccc2)cc1 | nt | 4297 | -1 | nt | -22 | nt | nt
COc1ccc(/C=C(/CC(=O)NCc2ccc(Cl)cc2)c2nc3ccccc3s2)cc1 | -4 | 10697 | 3 | 1.8 | -25 | 8 | -5
COc1cccc(CNC(=O)c2ccc(NC(=O)C3CCCO3)cc2)c1 (stereo unspecified) | -2 | 8632 | 3 | 6.6 | -24 | 11 | 12
COc1ccccc1CN1C[C@@H]2C[C@@H](c3cccc(C)n3)N3CCC[C@@]23C1=O | 1 | 5399 | -2 | 5.2 | -16 | 0 | 8
COc1ccc(OCC(=O)NCc2n[nH]c(=O)c3ccccc23)cc1 | 3 | ? | -3 | -1.2 | -6 | -13 | -1
CCc1nnc(NC(=O)c2ccc(S(=O)(=O)N(CC)CC)cc2)s1 | -6 | 5612 | 10 | -3.2 | -5 | 5 | 10
CCCCn1c(N)c(N(CC(C)C)C(=O)CSc2ccccc2C)c(=O)[nH]c1=O | 10 | 4232 | 0 | 9.0 | -12 | -5 | -6
CCOc1ccccc1NC(=O)C(OC(=O)c1ccccc1)c1ccccc1 (stereo unspecified) | 18 | 2510 | 1 | 0.1 | -17 | nt | nt
CN1C(=O)/C(=C\c2cc(N=Nc3ccccc3)ccc2O)SC1=S | -3 | 2370 | 1 | 35 | -12 | 20 | 1
Cc1ccc(CNC(=O)C2CC(=O)N(C3CCCC3)C2)cc1 (stereo unspecified) | 4 | 4365 | nt | 3.5 | -10 | 11 | 5
CCOC(=O)Cn1c(=O)oc2cc(S(=O)(=O)NCCc3ccc(C)cc3)ccc21 | 5 | 5874 | 1 | 4.6 | 0 | 13 | 11
O=C(NCCc1ccccc1)C1CCC(Cn2c(=O)c3ccccc3n(Cc3cccnc3)c2=O)CC1 (stereo unspecified) | -4 | 2811 | -19 | -3.9 | -22 | -16 | 24
O=C1C2CCCN2C(c2ccc(Cl)cc2)N1c1ccccn1 (stereo unspecified) | 7 | 6604 | -7 | 1.8 | 1 | 7 | -2
COc1ccc(/C=N/NC(=O)CN(C)S(=O)(=O)c2ccc(NC(C)=O)cc2)cc1 | nt | 4333 | 8 | nt | -9 | nt | nt
CN1C(=O)C(c2nnc(Nc3cccc4ccccc34)s2)C2CC1(C)Oc1ccccc12 (stereo unspecified) | -22 | 9649 | nt | 0.2 | -25 | 2 | 3
Cc1ccc(/C=N/NC(=O)c2cc(C)oc2C)o1 | nt | 2791 | -3 | nt | -29 | nt | nt
COc1ccc2c(c1)c(C(C)=O)c(C)n2C | 11 | 4493 | 6 | 3.5 | -19 | 18 | 4
O=C(COc1cccc2cccnc12)N1CCc2ccccc2C1 | -7 | 4293 | 0 | -0.6 | 0 | 9 | 16
CC(C)c1cc(-c2cc(-c3ccc(Cl)cc3)on2)nc(NCC2CC2)n1 | 1 | 3846 | -1 | -7.7 | -18 | 1 | -4
COc1cccc(=O)c2c(C)n(-c3ccc(C(=O)O)cc3)c(C)c12 | -3 | 4398 | 5 | 2.7 | -6 | 1 | 4
O=C(O)c1ccc(Cl)c(NCc2cccs2)c1 | -3 | 3264 | 11 | -1.2 | -34 | -2 | 11
Cc1cccc2cc3c(nc12)-c1ccccc1C3=O | 40 | 3581 | 10 | 3.7 | -21 | -12 | -6
Cc1ccc(C(=O)/C=C/Nc2ccccn2)cc1 | -4 | 2477 | 6 | -11 | 76* | -5 | 0
c1ccc(COc2ccc(OCCCn3cncn3)cc2)cc1 | 1 | 4923 | 4 | 2.0 | -97 | nt | nt
Cc1ccc(-c2csc(NNC(=O)c3ccccc3)n2)cc1 | 0 | 2270 | 6 | -3.2 | 19 | -4 | -6
COC(=O)COc1ccc(C)cc1-n1nc2ccccc2n1 | 4 | 3135 | -4 | 4.7 | -13 | 4 | 3
O=C(CN1C(=O)NC2NC(=O)NC21)N/N=C/c1ccccc1O (stereo unspecified) | nt | 2287 | 0 | nt | 18 | nt | nt
Cc1ccccc1-n1c(SCC(=O)c2cc(C)n(C)c2C)nnc1-c1ccncc1 | -6 | 4288 | 7 | 4.7 | -8 | 6 | 29
O=C(O)c1cccc(OCc2ccccc2Cl)c1 | -11 | 9540 | 6 | 4.7 | nt | 4 | 6
CCOC(CNC(=O)CCc1c(C)nc2ncnn2c1C)OCC | 4 | 4376 | -5 | 5.2 | -7 | 7 | 5
Following part:
SMILES | ugtP null kill | Autofluor counter | BJeLR lethal | RN4220 kill | PrP 5UTR inh | Mtb hypoxia rep | Mtb hypoxia rep growth
Cc1ccc(N(C(=O)c2csnn2)C(C(=O)NC(C)(C)C)c2cccnc2)cc1C (stereo unspecified) | -8 | 3744 | 5 | -2.6 | -29 | 1 | 9
Cc1ccc(CNC(=O)CSc2ccc(-c3cccs3)nn2)cc1 | 13 | 12049 | 6 | 2.9 | 1 | -4 | -7
COc1ccccc1-n1c(SCC(=O)NC2CCS(=O)(=O)C2)nc2cc([N+](=O)[O-])ccc21 (stereo unspecified) | 5 | 2631 | -11 | 5.2 | -6 | 14 | 8
COc1cc(OC)c2c(-c3cccc(-c4ccc(O)cc4)c3)cc(=O)oc2c1 | -10 | 2766 | nt | -2.0 | -48 | 1 | 2
Cc1ccc(NC(=O)CC(C)S(=O)(=O)c2ccc3c(c2)NC(=O)CO3)cc1C (stereo unspecified) | 3 | 6294 | -4 | 1.4 | -2 | -5 | 4

Compound activity (PubChem BioAssay)

Compounds as they come; overall some 4.1% were active at least once.
